Six1-Eya2 inh: Six1/Eya2 interaction inhibition; AlphaScreen GST-Six1/His-Eya2 binding, biochemical; hits give low values; control for the full effect not named in the record; activity change, % (test concentration not listed); 360,000 compounds, 0.56% hits; AID 651725; in the data active = activity change below about -65%; inconclusive = about -30% to -65%; inactive = above about -30%; further: on the % scale 0 is the no-effect control and ±100 the full control effect
Target sequence (O00167 whole entry, looked up): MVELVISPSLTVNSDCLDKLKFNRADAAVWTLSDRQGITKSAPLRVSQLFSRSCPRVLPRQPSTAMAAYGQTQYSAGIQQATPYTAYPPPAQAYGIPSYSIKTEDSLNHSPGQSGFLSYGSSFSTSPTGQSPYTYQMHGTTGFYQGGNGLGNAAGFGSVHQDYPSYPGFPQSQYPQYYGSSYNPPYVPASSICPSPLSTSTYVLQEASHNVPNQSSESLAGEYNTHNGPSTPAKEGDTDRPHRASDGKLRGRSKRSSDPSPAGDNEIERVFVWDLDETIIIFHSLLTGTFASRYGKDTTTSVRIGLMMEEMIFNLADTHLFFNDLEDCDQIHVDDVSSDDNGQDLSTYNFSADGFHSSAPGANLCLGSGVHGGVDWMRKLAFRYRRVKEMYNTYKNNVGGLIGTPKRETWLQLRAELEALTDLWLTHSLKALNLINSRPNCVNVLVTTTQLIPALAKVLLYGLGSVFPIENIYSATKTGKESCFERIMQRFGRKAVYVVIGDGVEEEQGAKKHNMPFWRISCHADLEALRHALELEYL
Target sequence (Q15475 whole entry, looked up): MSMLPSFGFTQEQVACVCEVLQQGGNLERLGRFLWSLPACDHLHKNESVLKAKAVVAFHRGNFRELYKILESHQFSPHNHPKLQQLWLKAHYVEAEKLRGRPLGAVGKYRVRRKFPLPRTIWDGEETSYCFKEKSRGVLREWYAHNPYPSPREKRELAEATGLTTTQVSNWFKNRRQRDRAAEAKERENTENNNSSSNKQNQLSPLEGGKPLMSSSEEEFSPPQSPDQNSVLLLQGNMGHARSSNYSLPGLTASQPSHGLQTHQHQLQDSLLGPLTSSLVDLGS
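AlphaScreen with GST-Six1 and His-Eya2 (5X mix: 250 nM and 500 nM), glutathione donor and nickel acceptor beads; buffer 50 mM Tris pH 8.0, 300 mM NaCl, 1 mM TCEP; 1 h at 37 C in the dark.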
D2 PAM: potentiates the human D2 dopamine receptor allosterically; P14416; DiscoveRx D2 beta-arrestin cells, luminescence, 90 min; 100% = 57 uM dopamine signal; potentiation, % (no concentration beside the values); 360,000 compounds, 0.23% hits; AID 624464; active = potentiation of 50% or more; inconclusive = 30% to 50%; inactive = 30% or less;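 further: compound concentration not given in the record; tested on top of an EC20 dose of dopamine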
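PathHunter beta-arrestin assay in DiscoveRx D2 cells. Compounds were added with an EC20 of dopamine (50 nM final) for 90 min at 37 deg C. Luminescence was read 1 h after detection reagent, with 57 uM dopamine as the EC100 control.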
PINK1 expr mod: changes PINK1 expression; PINK1 immunofluorescence, high-content cytometry, 24 h; Potency, µM (titrated, usually from 76.6 µM), inactives show at the top dose activation (PINK1 increase), most hits filed as activators; 410,000 compounds, 0.2% hits; active = well fitted activation curve with a large enough effect; inconclusive = small, poorly fitted or top-dose-only effect; inactive = flat fitted curve, though single readings scatter; cell line not stated here;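 further: potency means the concentration at half of the fitted maximal effect; % of control where 0% means no effect; nearly all actives have a fitted effect of over 65% in size; a mitochondrial uncoupler was the plate control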
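PINK1 protein level read as immunofluorescence by microplate cytometer in a fixed, stained stable cell line after 24 h exposure to five compound concentrations, with CCCP as control.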
TRPML1 ag: activates the human TRPML1 channel | TRPML1-expressing cells, Ca2+ dye fluorescence, FDSS; host cell line not named in the record; reference of the full effect not given here | 410,000 compounds, 0.12% hits | activation, % (test concentration not listed) | AID 624414; in the data active = activation above about 50%; inconclusive = about 30% to 50%; inactive = below about 30%; further: 0% is about no effect; the text of the record puts the active cut at 80%
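Agonist activity was taken from a 110 s kinetic Ca2+ dye read on the FDSS after pinning compounds onto TRPML1-DL cells. The cells were seeded at 1,500/well with Tet inducer, incubated about 16 h, then dye-loaded at room temperature.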
D2 ag: activates the human D2 dopamine receptor; P14416; DiscoveRx PathHunter D2 beta-arrestin, luminescence, 90 min; 100% = 57 uM dopamine signal; activation, % (test concentration not listed); 360,000 compounds, 0.084% hits; AID 624465; in the data active = activation above about 40%; inconclusive = about 15% to 40%; inactive = below about 15%; further: compound concentration not given in the record; the text of the record calls up to 30% inactive
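Agonist mode: compounds alone added to overnight-plated D2 PathHunter cells for 90 min at 37 C, with 57 uM final dopamine (EC100) defining full response. Beta-arrestin recruitment detected by chemiluminescent reagent, read after 1 h at ambient temperature.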
TRPML1 blocker: human mucolipin-1 channel inhibition | TRPML1-inducible cells, Ca2+ dye fluorescence, FDSS; hits give low values; inhibition of EC80 agonist-evoked calcium signal | Q9GZU1 | activity change, negative = inhibition, % (no concentration beside the values) | 390,000 compounds, 0.02% hits; in the data active means activity change below about -50%; inconclusive means about -30% to -50%; inactive means above about -30%;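 further: stimulus is agonist 54-4 at its EC80 concentration; on the % scale 0 is the no-effect control and ±100 the full control effect; compound concentration not given in the record; the text of the record puts the active cut at -80%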
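Tet-induced TRPML1-DL cells loaded with Ca8 no-wash calcium dye were read kinetically on FDSS. Compound addition was followed by EC80 agonist 54-4 (4 uM final); inhibition was read over 110 s.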
* = called active by the depositor; ? = inconclusive; . = not tested or not shown; [ ] = dose if it differs, or a comment.

entry	mol	Six1-Eya2 inh	D2 PAM	PINK1 expr mod	TRPML1 ag	D2 ag	TRPML1 blocker
1	COc1ccc(OC)c(NC(=O)c2cn(C)c(=O)c3cc(OC)c(OC)cc23)c1	-5	3	-0.1%	0.0	-0.2	-13
2	COCCN(CCOC)C(=O)N1CCOCC1	-2	0	1.1%	0.8	-4.5	11
3	CCc1ccc(/C=C2\SC(=S)N(CCCC(=O)N3CCN(C)CC3)C2=O)cc1	-24	-21	0.8%	-0.4	-0.7	-6
4	O=C(O)CSCC(=O)N(Cc1ccccc1)c1nc(-c2ccccc2)c(-c2ccccc2)s1	-16	-15	-0.9%	-0.1	3.7	-15
5	CCOc1ccc(NC(=O)CN(C)S(=O)(=O)c2cccs2)cc1	4	-4	4.1%	-0.8	-1.8	-13
6	CN1c2ccccc2-c2nc3ccccc3n2C1c1ccncc1 (stereo unspecified)	-6	18	-2.1%	0.3	-2.1	15
7	COc1ccccc1C(=O)Nc1ccc(OCc2cc(=O)n3cccc(C)c3n2)cc1	.	.	2.0%	2.0	.	-2
8	Cc1ccc(-c2csc(NC(=O)C3CC=CCC3C(=O)O)c2C(=O)OC(C)C)cc1 (stereo unspecified)	2	-17	-2.6%	0.8	-14	14
9	COc1ccc(OCCCn2cc(/C=C3/C(=N)N4C=C(C)SC4=NC3=O)c3ccccc32)cc1	-3	-8	5.1%	-0.5	0.9	9
10	CCn1c(CNC(=O)c2ccco2)nnc1SCC(=O)c1ccc(OC)cc1	3	-7	0.7%	0.6	-2.8	-9
11	CCOc1ccc(C(=O)NCC(=O)NCC(c2ccc(OC)cc2)N2CCCC2)cc1 (stereo unspecified)	1	-13	-4.4%	1.0	-3.7	3
12	COc1ccc(-c2nc3ccccc3c(=O)n2CCOc2ccccc2C)cc1	0	-4	3.3%	0.0	-5.5	3
13	Cc1ccc(C(=O)CC(=O)COc2ccc(Cl)cc2C)cc1	12	-12	-0.1%	0.8	0.0	-13
14	c1cn(C23CC4CC(CC(C4)C2)C3)cn1	2	-5	2.0%	-0.7	-0.8	-3
15	COc1ccccc1-c1c(C)nn2c(NCCN3CCCC3)cc(C)nc12	4	-7	1.2%	-0.7	-2.8	-9
16	CC(C)(C)OC(=O)[C@H](Cc1ccccc1)NC(=O)c1nc[nH]c1C(=O)NCC(=O)OCc1ccccc1	-8	3	3.3%	3.2	1.2	-12
17	Cc1[nH]n(-c2cccc(Cl)c2)c(=O)c1-c1ccccc1	1	15	-1.6%	3.3	-1.9	10
18	COc1ccccc1C(=O)NCc1ccc(-c2nc3ccccc3s2)cc1	6	-6	0.2%	0.7	-2.0	-26
19	CCc1nc2c(OCc3cccc(Cl)c3)cccn2c1N(C)C(=O)Nc1ccccc1OC	-21	-3	19%	1.1	2.6	.
20	Cc1ccc(OCC(=O)NNC(=O)c2ccccc2OCc2c(C)noc2C)cc1	3	-17	-1.1%	0.9	1.0	-4
21	COc1cccc(NC(=O)c2ccc(-n3cnnn3)cc2)c1	-10	3	1.5%	0.9	-1.0	-6
22	COC(=O)c1ccc(NC(=O)COC(=O)COc2cccc3c2OC(C)(C)C3)cc1	-1	-3	1.8%	6.7	6.8	31
23	CSc1ccc(C(=S)N2CCN(Cc3ccccc3)CC2)cc1	-24	-43	.	1.5	0.1	-19
24	CCCn1c(N)c(C(=O)CSc2nc(C3CC3)n(-c3ccccc3)n2)c(=O)[nH]c1=O	-1	-17	?	0.9	-1.2	3
25	Cc1ccc(CN2CC(C(=O)N3CCN(S(=O)(=O)c4ccc(C)cc4C)CC3)CC2=O)cc1 (stereo unspecified)	1	-16	-0.9%	1.3	-1.4	37
26	C/C(=N/NC(=O)c1cccs1)c1cccc(N)c1	4	-8	2.2%	0.1	-3.6	-11
27	CCOC(=O)C1CCN(C(c2ccc(OCC)cc2)c2c(O)cc(C)n(CCOC)c2=O)CC1 (stereo unspecified)	.	.	0.4%	1.6	.	2
28	NC(=O)c1c(NC(=O)Cc2ccccc2)sc2c1CCN(Cc1ccccc1)C2	-4	-11	4.2%	2.7	2.7	5
29	CCCC(=O)NC(=S)Nc1ccccc1N1CCOCC1	4	5	-0.2%	1.2	0.0	6
30	COc1ccc(/C=C2\SC(=S)N(CCCC(=O)N3CCN(C)CC3)C2=O)cc1OC	-1	1	-2.5%	0.0	-1.5	6
31	O=C(/C=C/c1ccccc1Cl)NC1CCS(=O)(=O)C1 (stereo unspecified)	11	-7	3.2%	0.2	-3.6	63
32	Cc1cc(Cl)ccc1OCC(=O)NNC(=O)C1CSC2(C)CCC(=O)N12 (stereo unspecified)	-1	-7	1.9%	-0.3	0.7	-6
33	CCN(CC(=O)Nc1c(F)cccc1F)C(=O)C1CCN(C(=O)c2ccc(Cl)cc2)CC1	3	?	3.0%	0.9	-3.3	0
34	O=C(Cn1nnc2c(sc3nc4c(c(-c5ccccc5)c32)CCC4)c1=O)c1ccccc1	1	24	3.3%	0.0	0.1	1
35	CC(CC(C)C(=O)Nc1ccccc1C(C)(C)C)C(=O)O (stereo unspecified)	6	-4	-3.7%	-0.6	-0.2	14
36	Cc1ccnc(N2C(=O)C3C4CC(C(Br)C4Br)C3C2=O)c1 (stereo unspecified)	3	4	1.4%	0.6	-0.1	-7
37	COc1cc2c3c(c1OC)C1(C=CC(=O)C=C1)CC3N(C(=O)c1ccccc1)CC2 (stereo unspecified)	0	-5	7.8%[38.3 µM]	-0.5	-1.7	23
38	COc1ccc(C2C(C(=O)O)CC(=O)N2c2ccc(OC)cc2)cc1 (stereo unspecified)	4	13	-1.0%	2.4	-1.4	1
39	Cc1cccc2c1NC(C)CC2C (stereo unspecified)	-11	13	0.6%	0.1	-2.4	-6
40	c1cc(CNc2ccc(N3CCOCC3)cc2)ccn1	-6	20	0.9%	2.4	2.0	41
41	CCN(CC)c1ccc(/C=N/NC(=O)c2ccc3c(c2)OCCO3)cc1	-6	-12	3.5%	-0.2	-0.4	7
42	O=C(CNC(=O)c1ccc(Br)o1)Nc1cccc(S(=O)(=O)N2CCCC2)c1	-7	-13	-2.2%	3.4	4.8	31
43	CSc1ccccc1NC(=O)C1CCN(S(C)(=O)=O)CC1	3	-4	1.1%	0.6	-4.5	15
44	CC(OC(=O)c1nsc(Cl)c1Cl)C(=O)NCCc1ccccc1 (stereo unspecified)	10	-6	3.4%	-1.8	-6.3	-1
45	FC(F)(F)c1cccc(Cc2noc(CN3C[C@@H]4CCC[C@H]3C4)n2)c1	-5	-6	11%	0.1	-0.5	13
46	Cc1cc(Br)cn2c(Cc3ccccc3)c(-c3ccccc3)nc12	1	-5	0.1%	1.1	-4.3	9
47	COc1ccc(NC(=O)c2oc3ccccc3c2NC(=O)C2CCCCC2)c(OC)c1	.	.	0.0%	-0.8	.	-6
48	COC(=O)CC(=O)CSc1nc2cc(C(=O)NCC(C)C)ccc2c(=O)n1CCc1ccccc1	.	.	9.7%	2.5	.	3
49	CC(OC(=O)C1CC(=O)N(Cc2ccco2)C1)C(=O)Nc1ccc(F)cc1Cl (stereo unspecified)	-1	2	2.4%	-0.3	-0.6	0
50	CCCCCCCC(=O)NNC(=O)c1c(O)c2ccccc2n(CCC)c1=O	1	1	-0.6%	0.6	0.5	30
51	O=C(N/N=C/c1ccc(N2CCCCC2)o1)c1ccccc1	2	-11	-0.9%	1.1	-2.7	-3
52	CCn1nnnc1NC(=O)c1ccc2ccccc2c1	-11	1	0.6%	-0.6	2.9	-8
53	O=C(CN1CCN(c2nc(-c3ccccc3)cs2)CC1)Nc1ccc2c(c1)OCO2	-14	1	12%[38.3 µM]	4.2	-1.7	40
54	O=C(COC(=O)c1ccc(N2CCCC2=O)cc1)c1ccccc1	24	6	0.8%	-0.5	-1.0	-5
55	Cc1ccc(CN(CC(=O)N/N=C/c2ccco2)S(=O)(=O)c2ccc(C)cc2)cc1	-8	-3	0.4%	1.4	-4.5	47
56	Cc1cc(NC(=O)c2ccccc2F)ncc1NC(=O)c1cccs1	?	-7	-1.1%	0.0	0.6	24
57	CCCn1nc(CC(=O)O)c2ccccc2c1=O	3	-10	0.0%	1.2	-0.6	24
58	CC(=O)Nc1ccc(Oc2ccc(NC(C)=O)c(NC(C)=O)c2)cc1	3	2	0.4%	0.3	4.0	5
59	Cn1c(C(=O)N2CCC(C(=O)NCCc3ccccc3)CC2)cc2sccc21	.	.	0.0%	-0.4	.	-7
60	COc1cc(-c2nc3ccc4ccccc4c3c3c2CCC3)ccc1O	2	-10	-3.7%	0.1	-1.6	8

Following part:
entry	mol	Six1-Eya2 inh	D2 PAM	PINK1 expr mod	TRPML1 ag	D2 ag	TRPML1 blocker
61	COc1ccc(Oc2nc(-c3ccccc3)ncc2S(=O)(=O)c2ccccc2)cc1	1	-9	16%	1.9	-5.5	5
62	CCCC1C(=O)N(Cc2ccccc2)C(=O)CC1C (stereo unspecified)	-1	-7	1.4%	0.3	-7.9	-13
63	CCOC(=O)N1CCC(NCCNC(=O)c2cccs2)CC1	2	-26	-1.9%	-0.2	7.9	9
64	CCCN(CCC)CC(O)Cn1cc(/C=C/C(=O)c2ccc(Br)cc2)c2ccccc21 (stereo unspecified)	.	.	-3.9%	0.9	.	-13
65	CCCCOC(=O)c1ccc(NC(=S)NC(=O)c2c(Br)c(C)nn2C)cc1	5	-11	16%	-0.6	-8.3	-1
66	COc1ccc(NC(=O)CSCC(=O)NCc2ccco2)cc1	-2	14	2.2%	-0.1	2.7	21
67	COc1ccc(C(=O)OCC(=O)NC(=O)NC(C)C)cc1OC	7	-7	0.1%	0.5	-2.3	-8
68	CCOc1ccc(N(CC(=O)NCc2ccco2)S(=O)(=O)c2ccc(OC)c(OC)c2)cc1	1	-20	3.4%	-1.3	-0.4	-7
69	COc1cccc(NC(=O)NCc2ccccn2)c1	-8	-3	-0.2%	-0.1	0.7	1
70	CC1OC2C(OC1C)N(S(C)(=O)=O)CCN2S(C)(=O)=O (stereo unspecified)	11	8	1.9%	0.1	0.0	8
71	CCCn1c2ccccc2c2cnn(CC(=O)NCc3cc(OC)ccc3OC)c(=O)c21	.	.	0.8%	0.8	.	51
72	CC(=O)Nc1cccc(C(=O)Nc2nc(C)cs2)c1	-17	-23	0.2%	-1.0	-3.1	12
73	CCC(=O)N(C)CCc1cc2c(c(OC)c1/C=N/NC(=O)c1ccc(Br)cc1)OCO2	-20	-26	0.6%	2.6	-1.0	2

Screens from PubChem.
